# Screens: PubChem BioAssay, National Center for Advancing Translational Sciences (NCATS)
# TRPML1 agonist – activates the human TRPML1 channel; Q9GZU1; AID 624414; actives 0.12% (n = 410,000); TRPML1-expressing cells, Ca2+ dye fluorescence, FDSS; host cell line not named in the record; reference of the full effect not given here; activation, % (concentration not given with the values); in the data active = activation above about 50%; inconclusive = about 30% to 50%; inactive = below about 30%; note: 0% is about no effect; the text of the record puts the active cut at 80%
# Target sequence (Q9GZU1 whole entry, looked up): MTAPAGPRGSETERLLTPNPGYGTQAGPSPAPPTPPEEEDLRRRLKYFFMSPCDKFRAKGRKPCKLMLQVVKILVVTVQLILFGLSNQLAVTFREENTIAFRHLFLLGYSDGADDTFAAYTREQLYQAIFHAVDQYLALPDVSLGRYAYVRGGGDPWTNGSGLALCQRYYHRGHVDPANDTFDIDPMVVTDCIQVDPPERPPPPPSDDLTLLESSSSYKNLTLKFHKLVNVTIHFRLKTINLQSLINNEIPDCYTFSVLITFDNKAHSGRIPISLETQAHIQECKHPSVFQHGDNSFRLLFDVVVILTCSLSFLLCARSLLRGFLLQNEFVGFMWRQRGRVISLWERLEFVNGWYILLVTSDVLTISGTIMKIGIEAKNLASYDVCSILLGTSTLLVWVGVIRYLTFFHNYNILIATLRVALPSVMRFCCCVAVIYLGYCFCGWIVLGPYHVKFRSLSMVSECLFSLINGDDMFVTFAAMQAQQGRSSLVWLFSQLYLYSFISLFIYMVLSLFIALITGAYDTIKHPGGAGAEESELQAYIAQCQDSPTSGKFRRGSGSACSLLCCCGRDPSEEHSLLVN
#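 Kinetic FDSS Ca2+ read in Tet-induced TRPML1-DL cells (ABD Ca8 dye plus quencher, 45-90 min RT loading): baseline, then compound, then 110 s agonist window; EC80 agonist 54-4 at 4uM final added afterwards for a 110 s antagonist window.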
# CtBP-E1A blk – CtBP/E1A binding inhibition | AlphaScreen GST-E1A/His-CtBP binding, 1536-well; hits give low values; control for the full effect not named in the record | activity change, % (test concentration not listed) | actives 0.49% (n = 340,000) | AID 651724; in the data active means activity change below about -65%; inconclusive means about -30% to -65%; inactive means above about -30%; note: % is set by controls: 0 for no effect and ±100 for the full control effect; compound concentration not given in the record
#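 AlphaScreen with 125 nM GST-E1A and 125 nM His-CtBP (5X stocks) in Tris pH 8.0, 300 mM NaCl, BSA, Tween 20, TCEP. Compounds preincubated 2 h at 37 deg C, then glutathione donor/nickel acceptor beads added for 1 h at 37 deg C in dark.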
# TRPML1 inh – human mucolipin-1 channel inhibition; Q9GZU1; TRPML1-inducible cells, Ca2+ dye fluorescence, FDSS; hits give low values; inhibition of EC80 agonist-evoked calcium signal; activity change, negative = inhibition, % (concentration not given with the values); actives 0.02% (n = 390,000); AID 624415; in the data active means activity change below about -50%; inconclusive means about -30% to -50%; inactive means above about -30%;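 note: stimulus is agonist 54-4 at its EC80 concentration; % is set by controls: 0 for no effect and ±100 for the full control effect; compound concentration not given in the record; the text of the record puts the active cut at -80%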
#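 TRPML1-DL cells, Tet-induced overnight (~16 h, 37 °C) at 1,500 cells/well, were loaded with Ca8 no-wash dye plus quencher for 45-90 min at room temperature. Compounds were pinned during FDSS kinetic reading; agonist 54-4 at EC80 (4 uM final) then added.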
# Six1-Eya2 blk – blocks human Six1 binding to Eya2; Q15475+O00167; AlphaScreen GST-Six1/His-Eya2 binding, biochemical; hits give low values; control for the full effect not named in the record; activity change, % (concentration not given with the values); actives 0.56% (n = 360,000); in the data active = activity change below about -65%; inconclusive = about -30% to -65%; inactive = above about -30%; note: % is set by controls: 0 for no effect and ±100 for the full control effect
#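 Compounds are tested against tagged Six1 and Eya2 proteins bridged by glutathione donor and nickel acceptor beads; after a one-hour incubation at 37 °C without light, AlphaScreen emission is recorded.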
# PINK1 expr mod – changes PINK1 expression; Potency, µM (titrated, usually from 76.6 µM), for inactives: top-dose activation (PINK1 increase), usual class: activators; actives 0.2% (n = 410,000); PINK1 immunofluorescence, high-content cytometry, 24 h; active = well fitted activation curve with a large enough effect; inconclusive = small, poorly fitted or top-dose-only effect; inactive = flat fitted curve, though single readings scatter; cell line not stated here;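 note: potency is the fitted concentration of half-maximal effect; % of control where 0% means no effect; nearly all actives have a fitted effect of over 65% in size; a mitochondrial uncoupler was the plate control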
#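 A stable cell line was treated with compounds at 5 concentrations for 24 hours, with CCCP as control. PINK1 levels and mitochondrial localization were measured by immunofluorescence with mitochondrial, cell and nuclear markers after fixation, read by laser-scanning cytometry.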
# D2 agonist – agonists of human D2 dopamine receptor (beta-arrestin); P14416; DiscoveRx PathHunter D2 beta-arrestin, luminescence, 90 min; 100% = 57 uM dopamine signal; activation, % (concentration not given with the values); actives 0.084% (n = 360,000); AID 624465; in the data active = activation above about 40%; inconclusive = about 15% to 40%; inactive = below about 15%; note: compound concentration not given in the record; the text of the record calls up to 30% inactive
# Target sequence (P14416 whole entry, looked up): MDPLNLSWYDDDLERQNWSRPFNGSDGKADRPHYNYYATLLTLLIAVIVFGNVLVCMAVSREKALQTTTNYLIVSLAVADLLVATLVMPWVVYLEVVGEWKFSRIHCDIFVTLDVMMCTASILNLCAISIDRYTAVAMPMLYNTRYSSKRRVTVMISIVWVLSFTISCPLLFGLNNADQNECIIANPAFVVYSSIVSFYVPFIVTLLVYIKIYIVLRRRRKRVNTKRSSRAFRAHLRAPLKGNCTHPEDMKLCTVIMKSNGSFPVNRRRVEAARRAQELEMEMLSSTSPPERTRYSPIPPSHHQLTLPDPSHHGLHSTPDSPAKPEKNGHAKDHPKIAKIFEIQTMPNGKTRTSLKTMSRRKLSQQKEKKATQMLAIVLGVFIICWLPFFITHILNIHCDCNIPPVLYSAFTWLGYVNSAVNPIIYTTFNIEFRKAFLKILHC
#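 DiscoveRx PathHunter D2 beta-arrestin cells (2,100/well) attached overnight, then compound-stimulated 90 min at 37 C in HBSS/10 mM HEPES/0.1% Tween-20 buffer; beta-galactosidase complementation read by luminescence after 1 h at ambient temperature. Dopamine 57 uM final (EC100) as control.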
# * = called active by the depositor; ? = inconclusive; . = no result given; & = joins results of further samples; [ ] = remark or other dose.
# Sequence of screens – TRPML1 agonist	CtBP-E1A blk	TRPML1 inh	Six1-Eya2 blk	PINK1 expr mod	D2 agonist
> C[C@@H]1ON(C)[C@H]2C[C@H]3c4[nH]c5ccccc5c4CCN3C(=O)[C@@H]12
    -0.3	4.7	-6.2	-0.6	-0.2%	0.6
> O=C(OCC(=O)N1CCOCC1)c1ccc(Cl)c(S(=O)(=O)N2CCc3ccccc32)c1
    2.0	-0.2	-1.0	0.2	4.6%	5.6
> Cc1ccc(CNC(=O)Cn2cccc2C(=O)c2ccccc2)cc1
    1.3	-6.9	9.0	4.4	0.6%	-1.3
> CC(C)(C)[C@H]1C=C(C(=O)N2CCOCC2)O[C@@H](OCCCCO)C1
    -0.1	-0.4	-5.9	0.3	-1.7%	-0.6
> COc1ccc(CN(Cc2ccc(OC)cc2)S(=O)(=O)c2ccc(-n3cnnn3)c(C)c2)cc1
    2.9	-7.6	-4.4	-1.9	9.1%[38.3 µM]	-2.6
> NC(=O)c1cc(-c2csc(-c3cccnc3)n2)ccc1O
    1.5	-8.2	-11.7	-17.5	0.1%	3.0
> Cn1nc(-c2ccccc2)cc1NC(=O)Nc1ccc(C(C)(C)C)cc1
    -0.2	.	-10.3	-1.2	?	0.6
> O=C(N/N=C\c1ccc(-c2ccc(Cl)c(Cl)c2)o1)C(=O)N1CCCC1
    0.9	-0.2	-2.1	10.4	?	-0.7
> O=C(O)c1ccccc1N=N/C(=N/Nc1cc(S(=O)(=O)O)ccc1O)c1ccccc1
    3.4	-18.0	9.1	?	0.4%	-3.7
> CCN(CC)CCNC(=O)Cn1nc(Cc2cccnc2)c2ccccc2c1=O
    0.0	3.9	-6.0	0.5	-1.0%	-4.2
> CCOc1ccc2oc(C(=O)NCC(C)(C)CN(C)C)c(C)c2c1
    -0.7	.	11.9	1.7	-1.2%	-1.6
> CCCn1cccc(C(=O)Nc2ccc(OC)cc2)c1=O
    0.1	3.6	-0.5	8.7	-0.6%	2.2
> CCCCN(C)C1CCN(C(=S)Nc2ccc(OC)cc2)CC1
    0.0	9.1	21.9	-3.8	0.6%	-5.6
> O=C(CN1C(=O)COc2ccccc21)N(Cc1ccc2c(c1)OCO2)CC1CCCO1 (stereo not given)
    2.2	0.7	0.0	1.0	-1.1%[38.3 µM]	-2.2
> COc1ccc(-c2nc(C#N)c(NCc3cccnc3)o2)cc1OC
    -0.8	-16.2	2.6	-14.3	1.1%[38.3 µM]	-0.1
> COc1ccc(NC(=O)CSc2ccc(-c3sc(C)nc3C)nn2)cc1
    -0.8	-5.3	-4.7	-11.8	4.0%	-7.1
> Cc1ccc(S(=O)(=O)N2CC3(O)CN(C(=O)OC(C)C)N(C(=O)OC(C)C)CC3(OC(=O)NC3CC3)C2)cc1 (stereo not given)
    -0.7	-0.3	.	-0.7	0.6%	.
> COc1ccc(/C=C/C(=O)c2cc(F)ccc2OC(=O)c2ccccc2)cc1OC
    2.2	0.1	14.7	0.8	0.1%	2.4
> COc1ccc(NC(C)=[N+](C)CCNS(=O)(=O)c2ccc(Cl)cc2)cc1Cl
    0.0	2.4	-7.8	-2.1	-1.0%	-2.3
> O=C(c1ccccc1NS(=O)(=O)c1ccc(F)cc1)N1CCCCC1
    0.1	8.6	-6.2	-2.6	4.4%	-4.9
> O=C(NCc1ccccc1C(F)(F)F)C12CN(Cc3ccccc3)CC1C(c1ccc([N+](=O)[O-])cc1)=NO2 (stereo not given)
    0.6	-14.6	10.4	-18.7	0.4%	-2.0
> COC(=O)c1ccccc1S(=O)(=O)NNC(=O)C12CC3CC(CC(C3)C1)C2
    -0.5	5.6	-6.4	-1.6	6.9%	-1.1
> COc1ccccc1/C=N/NC(=O)CC(=O)Nc1ccc(Cl)c(Cl)c1
    2.1	-2.4	-6.8	-6.8	-0.7%	-4.1
> CCOc1cc(S(=O)(=O)NCCc2c(C)[nH]c3ccc(C)cc23)ccc1Br
    2.9	.	-10.4	.	?	.
> O=C(NC(=S)Nc1c(Cl)ccc2nsnc12)c1ccccc1F
    0.0	-10.9	33.1	4.2	7.9%	3.3
> CCc1ccccc1OCCOc1ccc(C)cc1OC
    1.1	52.8	6.4	40.2	?	-3.5
> CCCCCCSc1ccc(-c2nc3ccccn3c2NCCCC)cc1
    0.6	.	-12.5	8.8	?	0.3
> CCOc1ccccc1NC(=O)COc1coc(CN2CCc3ccccc32)cc1=O
    0.9	-9.3	-1.5	-27.4	0.0%	0.4
> COc1ccc(CC2(CO)CCN(Cc3cccnc3)CC2)cc1
    0.1	0.0	-1.8	-3.1	-0.1%	-0.1
> Cc1ccc(CCNC(c2ccc(F)cc2)c2nnc(-c3ccccc3Cl)o2)cc1 (stereo not given)
    0.2	.	-4.7	.	6.3%	.
> O=C(CCCN1C(=O)S/C(=C/c2ccccc2)C1=S)Nc1ccc(C(=O)O)cc1
    0.0	0.8	15.4	-5.9	-1.6%	-1.4
> COc1ccccc1-c1ccc(Nc2cccc(C(C)=O)c2)nn1
    1.6	-11.4	10.7	-15.9	-4.2%[38.3 µM]	-3.4
> CSc1cc(-c2ccccc2)n(Cc2ccccc2Cl)c(=O)c1C#N
    1.0	-4.1	12.9	14.5	12.1%	-1.6
> Cc1ccc(NC(=O)c2cc(S(=O)(=O)N(C)C3CCCCC3)ccc2F)cc1C
    -0.4	.	0.7	.	2.1%	.
> O=C(Cn1c(SCC(=O)N2CCCc3ccccc32)nc2ccccc21)N1CCCC1
    -0.3	8.4	-2.7	0.9	-2.2%[38.3 µM]	-2.2
> Cc1nn(-c2ccccc2)c(C)c1C(=O)OCC(=O)Nc1ccccc1F
    1.8	-0.3	-5.4	0.2	0.2%	-7.2
> CCCc1nc(-c2ccccc2)c(-c2ccc(OC)c(OC)c2)c(=O)[nH]1
    0.9	-9.6	33.4	-2.1	0.6%	-0.6
> Cc1c(Cl)cccc1NC(=O)NCc1ccc(C)n1C
    1.9	.	-0.2	-2.2	6.0%	-1.5
> Cc1ccc(/C=C2\SC(N3CCCCC3)=NC2=O)cc1
    -1.8	-23.9	5.9	2.4	-0.7%	-2.9
> CS(=O)(=O)c1ccc(N2CCN(c3ccccn3)CC2)c([N+](=O)[O-])c1
    2.0	-16.7	32.6	-12.2	2.0%	-4.3
> Cc1ccc(CNC(=O)CC2Oc3ccc(Cl)cc3NC2=O)cc1 (stereo not given)
    -0.4	.	2.2	.	-0.9%	.
> O=C(C1=NN(c2ccccc2)C2C(=O)N(c3ccc(Cl)cc3)C(=O)C12)c1ccccc1 (stereo not given)
    9.5	6.4	-9.9	3.7	0.7%	-5.0
> COc1ccc(OCC(=O)NCc2ccc3c(c2)CCN3C(=O)c2ccccc2)cc1
    0.7	.	-6.8	.	9.3%	.
> NNC(=O)c1ccc(COc2ccc3c(c2)CCC3)o1
    -0.2	2.8	19.5	-9.8	2.3%	3.7
> Cc1ccc2nc(-c3ccc(NC(=O)CSc4ccccc4)cc3)[nH]c2c1
    0.6	2.2	-13.8	-2.5	.	1.7
> Cc1noc(NS(=O)(=O)c2ccc(NC(=O)CCC3CCCC3)cc2)c1C
    0.3	-1.4	5.7	-1.8	2.8%	-1.1
> CCCNC(=O)Cn1nc(-c2ccc(C)cc2)c2cnc3ccc(CC)cc3c21
    -0.2	.	-0.7	.	1.3%	.
> CCOc1ccc(-n2nc3c(=O)n(CCN4CCCCC4)nc(C)c3c2C)cc1
    -0.2	-15.5	46.9	-2.4	0.3%	-5.4
> COc1ccc(-n2c(-c3ccccc3F)nc3c(cnn3-c3ccc(C)cc3)c2=O)cc1
    3.3	.	0.7	.	4.1%	.
> O=C(Cc1ccccc1)Nc1ccc2[nH]ncc2c1
    -0.2	-4.0	13.5	0.7	1.2%	-4.3
> Cc1ccc(O)c(CN(C)Cc2cc(C)ccc2O)c1
    2.1	7.4	1.3	-9.2	6.5%	-7.5
> Cc1ccccc1C(=O)NN1CCOCC1
    -0.5	-4.4	-2.3	1.9	2.7%	0.5
> COC(=O)C1=C(C)N(C)C(C)=C(C(=O)OC)C1c1ccc(C(=O)OC)cc1
    0.5	0.6	23.3	-0.5	1.3%	-1.6
> CC(NC(=O)Cn1cccc1C(=O)c1ccccc1)c1ccccc1 (stereo not given)
    -1.3	2.0	-11.2	-0.2	0.3%	3.8
> CCCN(CC(=O)Nc1cc(Cl)ccc1Cl)C(=O)/C=C/c1ccco1
    2.9	5.4	4.7	1.0	-2.6%	0.1
> CCN1CCN(S(=O)(=O)c2c[nH]c(C(=O)OC)c2)CC1
    0.0	-1.9	2.5	4.0	-0.1%	-3.0
> CCN(CC(=O)Nc1cc(S(=O)(=O)N2CCOCC2)ccc1C)Cc1ccccc1
    -0.2	-0.9	1.0	-9.4	1.4%	-1.4
> COc1cccc(NC(=O)COC(=O)C2CC2)c1
    -1.4	.	-15.1	12.5	0.5%	-0.6
> CCc1ccc(NC(=O)CN(c2cc(C)cc(C)c2)S(=O)(=O)c2c(C)[nH]c(=O)[nH]c2=O)cc1
    0.7&-0.4	.	-20.3&7.7	-13.2	3.2%&0.7%	-1.7
> CCCCN(C=O)c1c(CC)nc2ccc(C(=O)Nc3cc(-c4ccccc4)ccc3OC)cn12
    -0.8	-7.0	.	-1.3	0.9%	7.5

# Following part.
# Sequence of screens – TRPML1 agonist	CtBP-E1A blk	TRPML1 inh	Six1-Eya2 blk	PINK1 expr mod	D2 agonist
> O=C(OCc1ccc(COC(=O)c2ccc(O)cc2)cc1)c1ccc(O)cc1
    0.4	-4.4	6.3	-3.2	1.9%	0.8
> C/C(=N/NC(=O)CNC(=O)Cc1ccc(Cl)cc1)c1ccco1
    0.6	-1.0	10.4	0.0	4.5%	-3.1
> CN(C(=O)COC(=O)CN1C(=O)c2cccc([N+](=O)[O-])c2C1=O)c1ccccc1
    2.1	0.0	-9.5	3.2	1.6%	-2.0
> CCCCc1c(-c2cccc(OC)c2)ncn1CCc1ccccc1OC
    0.2	-0.1	.	-21.1	?	.
> CCOC(CNC(=O)c1ccc2nc(N3CCC(C)CC3)sc2c1)OCC
    -0.7	8.4	0.0	-0.7	-3.0%	-2.3
> COCC(=O)N1CCCC(C(=O)c2ccc(C(F)(F)F)cc2)C1 (stereo not given)
    0.0	-0.8	1.6	6.4	1.5%	-5.4
> Cc1cccc(N2C(=O)SC(N(CC(=O)O)c3cccc(C)c3)C2=O)c1 (stereo not given)
    -0.2	-1.9	-3.3	1.2	1.6%	2.2
> O=C(NC1CCC(c2ccccc2)CC1)c1cccnc1 (stereo not given)
    -0.1	8.9	-22.2	-5.0	-1.2%	-0.2
> O=C(Cc1cccs1)Nc1ccccc1NC(=O)Cc1cccs1
    -1.5	3.2	2.2	-1.1	-1.8%	-5.0
> CCCCN(CC)CCCNC(=O)c1sc2nc(C)cc(C)c2c1-n1cccc1
    -0.6	.	-5.7	.	0.3%	.
